# Assay outcomes (PubChem)
# Yeast UUG start = modulators of yeast start codon fidelity, primary screen, whole organism, S. cerevisiae, single point, plate reader | 350,000 compounds, 0.13% hits | AID 602363, 2012 | S. cerevisiae UUG-firefly luciferase reporter, luminescence/redox ratio | activity score, % at 18.7 µM;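 active means replicate mean at a twofold rise or more, about +100% in these data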;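 further: firefly luciferase made from a UUG start codon reports start codon fidelity; reporter light over untreated wells divided by growth signal over untreated wells; some hits fall short of that in this replicate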
# HIV Env fusion = inhibitors of HIV-1 Env-driven cell-cell fusion, primary screen, HeLa-JRFL effector, CEM21 target cells, luciferase | inhibition, % at 12.3 µM | 360,000 compounds, 1.1% hits;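 active means mean replicate inhibition score of at least 50 and every replicate individually at or above 50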;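 further: 0% = plate neutral controls and 100% = maraviroc near 300 nM; one replicate is shown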
# Active calls of the source: *; & = joins results of further samples; [ ] = remark or other dose. An excerpt; rates above refer to the full screens.
smiles	Yeast UUG start	HIV Env fusion
COc1ccccc1CNC(=O)C[C@H]1C[C@@H]2c3cc(NC(=O)C4CCC4)ccc3O[C@@H]2[C@@H](CO)O1	34	17[16.7 µM]
COC(=O)C[C@H]1CC[C@@H]2[C@H](COC[C@H](O)CN2S(=O)(=O)c2ccc(F)cc2)O1	12	-2[16.7 µM]
COc1cccc(S(=O)(=O)N[C@H]2C=C[C@@H](CC(=O)NC3Cc4ccccc4C3)O[C@@H]2CO)c1	4	-13[16.7 µM]
COc1ccc(S(=O)(=O)Nc2ccc3c(c2)C(=O)N([C@H](C)CO)C[C@@H](C)[C@@H](CN(C)C(=O)NC(C)C)OCCCC[C@@H](C)O3)cc1	-3	11[16.7 µM]
CC(C)C(=O)Nc1ccc2c(c1)C(=O)N(C)[C@H]1CC[C@@H](CC(=O)NCc3ccc(F)cc3)O[C@@H]1CO2	19	2[16.7 µM]
C=CCN1C(=O)[C@@]2(Cc3ccccc3)N=C(c3ccc(OCCCO)cc3)O[C@H]2c2ccccc21	33	10[16.7 µM]
C[C@@H]1CCCCO[C@H](CN(C)C(=O)CCCN(C)C)[C@H](C)CN([C@H](C)CO)C(=O)c2cc(NC(=O)Nc3cccc4ccccc34)ccc2O1	-1	17[16.7 µM]
O=C(CCN1CCCCC1)NCC[C@H]1CC[C@@H](NC(=O)C2CCC2)[C@H](CO)O1	-14	-6[16.7 µM]
COc1cccc(-c2cn(CC[C@H]3CC[C@H](NC(=O)CC4CC4)[C@@H](CO)O3)nn2)c1	-5	-1[16.7 µM]
CNC[C@@H]1Oc2cc(-c3ccccc3OC)ccc2S(=O)(=O)N([C@H](C)CO)C[C@H]1C	1	12[16.7 µM]
C[C@H](CO)N1C[C@H](C)[C@H](CN(C)C)Oc2ncc(C#CCN(C)C)cc2C1=O	23&4	-10&-11[16.7 µM]
CC(C)NC(=O)Nc1ccc2c(c1)C(=O)N([C@H](C)CO)C[C@@H](C)[C@@H](CN(C)S(=O)(=O)c1cccs1)OCCCC[C@@H](C)O2	1	21[16.7 µM]
COc1ccc(S(=O)(=O)N(C)C[C@@H]2Oc3ccc(NS(C)(=O)=O)cc3C(=O)N([C@H](C)CO)C[C@@H]2C)cc1	-3	21[16.7 µM]
C[C@H](CO)N1C[C@H](C)[C@@H](CN(C)C(=O)c2ccccc2)OCCCC[C@H](C)Oc2ccc(NC(=O)Nc3ccc(C(F)(F)F)cc3)cc2C1=O	-8	-27[16.7 µM]
CC(C)NC(=O)N(C)C[C@@H]1Oc2cc(C#CC3CC3)ccc2S(=O)(=O)N([C@@H](C)CO)C[C@H]1C	7	-18[16.7 µM]
COc1cc(CO)cc(I)c1O[C@H]1C=C(C(=O)NCCO)C[C@@H](NCc2ccccc2F)[C@@H]1O	-12	17[16.7 µM]
COc1ccccc1NC(=O)N[C@H]1C=C[C@@H](CC(=O)NCc2ccc(Cl)c(Cl)c2)O[C@H]1CO	30	43[16.7 µM]
O=C(CN1CCOCC1)NCC[C@@H]1CC[C@H](NC(=O)Nc2ccccc2)[C@@H](CO)O1	-4	11[16.7 µM]
C[C@@H](NC(=O)C[C@@H]1C[C@@H]2c3cc(NC(=O)Nc4ccccc4F)ccc3O[C@@H]2[C@@H](CO)O1)c1ccccc1	-3	15[16.7 µM]
O=C(N[C@@H]1CC[C@H](CCn2cc(-c3ccccn3)nn2)O[C@H]1CO)c1cccnc1	-11	2[16.7 µM]
C[C@@H]1CCCCO[C@H](CN(C)C(=O)Nc2cccc3ccccc23)[C@H](C)CN([C@@H](C)CO)C(=O)c2cc(NS(C)(=O)=O)ccc2O1	15	-13[16.7 µM]
CN(C)CC(=O)Nc1ccc2c(c1)[C@@H]1C[C@@H](CC(=O)NCc3ccccc3F)O[C@H](CO)[C@@H]1O2	-10	8[16.7 µM]
C[C@H](CO)N1C[C@H](C)[C@@H](CN(C)C(=O)C2CCCCC2)OCCCC[C@H](C)Oc2ccc(NS(=O)(=O)c3ccc(F)cc3)cc2C1=O	18	-139[16.7 µM]
O=C(C[C@H]1C=C[C@@H](NC(=O)C2CCC2)[C@H](CO)O1)NC1CCC1	-1	15[16.7 µM]
O=C(NC1CCCCC1)N[C@H]1CC[C@H](CC(=O)N2CCOCC2)O[C@H]1CO	-17	12[16.7 µM]
C[C@@H]1CN([C@@H](C)CO)S(=O)(=O)c2ccc(C#CC3(O)CCCC3)cc2O[C@@H]1CN(C)C(=O)Cc1cccnc1	-3	-220[16.7 µM]
CNC[C@@H]1Oc2c(NC(=O)c3ccc(-c4nccs4)cc3)cccc2C(=O)N([C@@H](C)CO)C[C@@H]1C	17	-20[16.7 µM]
Cc1noc(C)c1S(=O)(=O)Nc1ccc2c(c1)CC(=O)N([C@H](C)CO)C[C@@H](C)[C@H](CN(C)C(=O)Nc1ccc(F)cc1)O2	-1	4[16.7 µM]
O=C(C[C@H]1CC[C@@H](NC(=O)Nc2cccc(F)c2)[C@H](CO)O1)NCC1CCCCC1	-5	-5[16.7 µM]
CCCc1cn(CC[C@@H]2CC[C@@H](NC(=O)C3CC3)[C@@H](CO)O2)nn1	-16	-21[16.7 µM]
CC(C)NC(=O)Nc1ccc2c(c1)C(=O)N([C@H](C)CO)C[C@@H](C)[C@H](CN(C)C(=O)c1ccccc1)OCCCC[C@H](C)O2	0	-22[16.7 µM]
Cc1ccc(S(=O)(=O)N(C)C[C@H]2Oc3ccc(NS(=O)(=O)c4ccccc4)cc3CC(=O)N([C@@H](C)CO)C[C@H]2C)cc1	3	-4[16.7 µM]
C/C=C/c1cnc2c(c1)C(=O)N([C@H](C)CO)C[C@@H](C)[C@H](CN(C)C(=O)NC1CCCCC1)O2	-5	-8[16.7 µM]
C[C@@H]1CN([C@@H](C)CO)C(=O)c2cccc(NC(=O)Nc3ccc4c(c3)OCO4)c2O[C@H]1CN(C)C(=O)Nc1ccc(C(F)(F)F)cc1	13	9[16.7 µM]
C[C@@H]1CN([C@@H](C)CO)C(=O)c2cccc(NC(=O)c3ccncc3)c2O[C@H]1CN(C)S(=O)(=O)c1ccccc1	-7	-10[16.7 µM]
C[C@@H]1CCCCO[C@H](CN(C)C(=O)Cc2ccccc2)[C@H](C)CN([C@@H](C)CO)C(=O)c2cc(NS(=O)(=O)c3cccs3)ccc2O1	7	-2[16.7 µM]
C[C@@H]1CN([C@@H](C)CO)C(=O)c2cccc(NC(=O)Nc3ccc(C(F)(F)F)cc3)c2O[C@H]1CN(C)Cc1ccc(C(=O)O)cc1	5	1[16.7 µM]
C[C@H](CO)N1C[C@H](C)[C@H](CN(C)S(C)(=O)=O)Oc2ncc(-c3cccc(F)c3)cc2C1=O	11&4	0&-6[16.7 µM]
C[C@@H]1CN([C@@H](C)CO)C(=O)c2cc(NS(=O)(=O)c3ccccc3)ccc2O[C@@H](C)CCCCO[C@H]1CN(C)C(=O)CCC(F)(F)F	8	-5[16.7 µM]
C[C@@H]1CN([C@H](C)CO)C(=O)Cc2cc(NC(=O)Nc3ccccc3)ccc2O[C@@H]1CN(C)Cc1ccccc1	-7	-3[16.7 µM]
O=C(N[C@H]1CC[C@H](CC(=O)N2CCCCC2)O[C@H]1CO)c1cccc(F)c1	-8	-16[16.7 µM]
C[C@H](CO)N1C[C@H](C)[C@@H](CN(C)Cc2cncnc2)Oc2cc(-c3ccccc3F)ccc2S1(=O)=O	28	3[16.7 µM]
CC(C)NC(=O)Nc1ccc2c(c1)C(=O)N([C@H](C)CO)C[C@@H](C)[C@H](CN(C)S(=O)(=O)c1ccc(Cl)cc1)OCCCC[C@H](C)O2	1	-20[16.7 µM]
C[C@@H]1CN([C@H](C)CO)S(=O)(=O)c2ccc(C#C[C@@H](C)O)cc2O[C@@H]1CN(C)C(=O)C1CCC1	3	-24[16.7 µM]
Cc1ccc(S(=O)(=O)Nc2ccc3c(c2)C(=O)N([C@@H](C)CO)C[C@H](C)[C@@H](CN(C)C(=O)CCC(F)(F)F)OCCCC[C@H](C)O3)cc1	12	34[16.7 µM]
CNC(=O)C[C@H]1CC[C@H]2[C@@H](COc3ccc(NC(=O)c4ccccc4F)cc3C(=O)N2C)O1	0	15[16.7 µM]
C[C@@H]1CN([C@@H](C)CO)C(=O)c2cc(NC(=O)Cn3cnnn3)ccc2O[C@H]1CN(C)Cc1ccc(-c2ccccc2)cc1	19	-4[16.7 µM]
C[C@@H]1CN([C@@H](C)CO)C(=O)c2cc(-c3ccccc3)cnc2O[C@@H]1CN(C)C(=O)C1CCOCC1	-13	8[16.7 µM]
C[C@@H]1CN([C@@H](C)CO)S(=O)(=O)c2ccc(C#C[C@@H](C)O)cc2O[C@@H]1CN(C)C(=O)Cc1ccccn1	-6	-8[16.7 µM]
C[C@@H]1CN([C@H](C)CO)C(=O)c2cc(NC(=O)CCC(F)(F)F)ccc2O[C@@H](C)CCCCO[C@H]1CN(C)S(=O)(=O)c1ccc(Cl)cc1	-1	19[16.7 µM]

# A stretch from the list above:
smiles	Yeast UUG start	HIV Env fusion
CNC(=O)C[C@H]1CC[C@H]2[C@@H](COc3ccc(NC(=O)c4ccccc4F)cc3C(=O)N2C)O1	0	15[16.7 µM]
C[C@@H]1CN([C@@H](C)CO)C(=O)c2cc(NC(=O)Cn3cnnn3)ccc2O[C@H]1CN(C)Cc1ccc(-c2ccccc2)cc1	19	-4[16.7 µM]
C[C@@H]1CN([C@@H](C)CO)C(=O)c2cc(-c3ccccc3)cnc2O[C@@H]1CN(C)C(=O)C1CCOCC1	-13	8[16.7 µM]
C[C@@H]1CN([C@@H](C)CO)S(=O)(=O)c2ccc(C#C[C@@H](C)O)cc2O[C@@H]1CN(C)C(=O)Cc1ccccn1	-6	-8[16.7 µM]
C[C@@H]1CN([C@H](C)CO)C(=O)c2cc(NC(=O)CCC(F)(F)F)ccc2O[C@@H](C)CCCCO[C@H]1CN(C)S(=O)(=O)c1ccc(Cl)cc1	-1	19[16.7 µM]

# Remaining list, next part.
smiles	Yeast UUG start	HIV Env fusion
C[C@H](CO)N1C[C@H](C)[C@H](CN(C)C(=O)CCCN(C)C)OCCCC[C@H](C)Oc2ccc(NC(=O)Nc3ccc(F)cc3)cc2C1=O	7	3[16.7 µM]
CCC(=O)N(C)C[C@@H]1Oc2cc(-c3ccccc3)ccc2S(=O)(=O)N([C@H](C)CO)C[C@@H]1C	12	-1[16.7 µM]
C[C@H]1CN([C@@H](C)CO)C(=O)Cc2cc(NC(=O)Nc3ccc(F)cc3)ccc2O[C@@H]1CN(C)Cc1ccc(-c2ccccc2)cc1	-2	-3[16.7 µM]
CN1C(=O)c2cc(NC(=O)c3ccc(F)cc3)ccc2OC[C@@H]2O[C@H](CC(=O)NC3CCC3)CC[C@H]21	23	-21[16.7 µM]
CNC[C@H]1OCCCC[C@@H](C)Oc2ccc(NC(=O)Nc3c(C)noc3C)cc2C(=O)N([C@@H](C)CO)C[C@@H]1C	-6	16[16.7 µM]
C/C=C/c1cnc2c(c1)C(=O)N([C@H](C)CO)C[C@H](C)[C@@H](CN(C)C(=O)Nc1c(C)noc1C)O2	-4	-2[16.7 µM]
COc1ccc(NC(=O)N[C@H]2CC[C@H](CCn3cc(C4(O)CCCC4)nn3)O[C@@H]2CO)cc1	-5	-3[16.7 µM]
C[C@H]1CN([C@@H](C)CO)C(=O)c2cc(NC(=O)C3CC3)ccc2O[C@H]1CN(C)Cc1ccncc1	11	3[16.7 µM]
CCC(=O)N(C)C[C@H]1Oc2ncc(Br)cc2C(=O)N([C@@H](C)CO)C[C@@H]1C	-7	-11[16.7 µM]
CC(C)NC(=O)N(C)C[C@@H]1Oc2c(NC(=O)c3ccc(-c4nccs4)cc3)cccc2C(=O)N([C@H](C)CO)C[C@H]1C	-8	-4[16.7 µM]
CO[C@H]1CN(C)C(=O)c2ccc(NS(C)(=O)=O)cc2OC[C@@H](C)N(Cc2cncnc2)C[C@@H]1C	-1	-12[16.7 µM]
CCCC#Cc1cnc2c(c1)C(=O)N([C@H](C)CO)C[C@H](C)[C@@H](CN(C)CCC)O2	8	17[16.7 µM]
O=C(N[C@H]1CC[C@@H](CCn2cc(C3CCCCC3)nn2)O[C@H]1CO)c1cccnc1	10	-3[16.7 µM]
C[C@H](CO)N1C[C@H](C)[C@H](CN(C)Cc2ccc(C(F)(F)F)cc2)Oc2ccc(NC(=O)CCN3CCOCC3)cc2CC1=O	-4	11[16.7 µM]
C[C@@H]1CN([C@H](C)CO)C(=O)Cc2cc(NS(=O)(=O)c3cccs3)ccc2O[C@H]1CN(C)S(C)(=O)=O	-14	8[16.7 µM]
C[C@@H]1CN([C@H](C)CO)C(=O)Cc2cc(NC(=O)Cn3cnnn3)ccc2O[C@H]1CN(C)S(=O)(=O)c1ccccc1	3	0[16.7 µM]
CN1C(=O)c2cc(NC(=O)c3cscn3)ccc2OC[C@@H]2O[C@@H](CC(=O)NCC3CC3)CC[C@@H]21	-2	2[16.7 µM]
C[C@@H]1CN([C@@H](C)CO)C(=O)Cc2cc(NC(=O)Nc3ccccc3)ccc2O[C@@H]1CN(C)CC1CC1	1	6[16.7 µM]

# Reprinted at random: two records from the list
smiles	Yeast UUG start	HIV Env fusion
C[C@@H]1CN([C@H](C)CO)C(=O)Cc2cc(NC(=O)Cn3cnnn3)ccc2O[C@H]1CN(C)S(=O)(=O)c1ccccc1	3	0[16.7 µM]
CNC[C@H]1OCCCC[C@@H](C)Oc2ccc(NC(=O)Nc3c(C)noc3C)cc2C(=O)N([C@@H](C)CO)C[C@@H]1C	-6	16[16.7 µM]
